PMP22 txn prim = Cell-based coincidence reporter assay to measure PMP22 gene transcription in S16 Pmp22-F2sN cells - Primary screen | actives 2% (n = 43,000) | S16 Pmp22-F2sN Schwann cells (luciferase reporters placed in the Pmp22 gene), FLuc/NLuc coincidence luminescence, 24 h | Potency, µM (highest dose often 57.5 µM), for the others: top-dose activity change, negative = inhibition, hits mostly inhibitors; active = clear falling dose curves in both reporters; inconclusive = both reporters move, but less clearly or upward; inactive = either reporter flat; the % is the NLuc reporter signal; note: % is set by controls: 0 for no effect and ±100 for the full control effect; some results filed as inactive show a strong effect at the top dose
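Rat S16 Pmp22-F2sN cells, 500-1,000/well in phenol red-free DMEM + 10% FBS, compound-treated 24 h (37C, 5% CO2). Luminescence: FLuc read, Stop&Glo added, NLuc read.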
HTT promoter inh = Primary qHTS for Identification of Small Molecule Inhibitors of Huntingtin Promoter Activity. HEK293 HTT promoter firefly luciferase reporter (activity 0% = vehicle and -100% = no light), 24 h. Potency, µM (titrated, usually from 57.5 µM), for the others: top-dose activity change, negative = inhibition, most hits filed as inhibitors. actives 0.93% (n = 48,000); active = well fitted inhibition curve with a large enough effect; inconclusive = small, poorly fitted or top-dose-only effect; inactive = no such curve, though single readings can be large or run the other way; note: nearly all actives have a fitted effect of over 50% in size
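HEK293 cells carrying firefly luciferase reporters were seeded at 2,500 per well in Opti-MEM and cultured for 24 h. They were then treated with compounds at up to 57.5 uM final for 24 h at 37 degrees C before Dual-Glo luminescence readout.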
Numbers without * were called inactive; ? = inconclusive; nt = not tested or not shown; [ ] = remark or other dose. Potency is the fitted concentration of half-maximal effect. This is a subset, so the mix of outcomes need not match the whole.

compound	PMP22 txn prim	HTT promoter inh
Cc1cccc(NC(=O)c2oc3ccccc3c2NC(=O)c2cc(=O)c3ccccc3o2)c1	-3.8%	-17.5%
COc1cc2nc(SCC(=O)Nc3cccc(C)c3)n3nc(CCn4c(C)nc5ccccc54)nc3c2cc1OC	?	?
COc1ccc(NC(=O)CSc2nnc(-c3ccncc3)n2-c2ccccc2)cc1	-5.2%	-18.9%
Cc1ccc(OCCSc2nc3ccccc3n2CC(=O)N2CCOCC2)cc1	18.3%	-8.4%
COCCNC(=O)c1ccc2nc(CCc3ccccc3)oc2c1	5.4%	23.8%
CCOC(=O)c1cnc2c(OC)cccc2c1N1CCN(c2ccccc2F)CC1	?	?
Cc1nn(S(=O)(=O)c2ccc(Cl)cc2)c(C)c1S(=O)(=O)N1CCCCCC1	17.7%	-6.8%
CCOc1ccc(C(=O)Nc2cccc(-c3nc4cccnc4s3)c2C)cc1OCC	-29.8%	?
CCOc1ccc(NC(=O)CSc2nc3c([nH]c4ccccc43)c(=O)n2-c2cc(C)cc(C)c2)cc1	?	-12.9%
COc1ccc(C)cc1Nc1nc2c(S(=O)(=O)c3cccc(Cl)c3)nnn2c2ccsc12	2.5%	-17.1%
CCCn1c(=N)c(C(=O)NCc2cccnc2)cc2c(=O)n3ccccc3nc21	?	-6.9%
COc1ccc(-n2cc(C(=O)NCc3ccccc3)c3ccccc3c2=O)cc1	11.5%	-12.9%
CCCS(=O)(=O)c1c(S(=O)(=O)CCC)c2cc(C(C)(C)C)ccn2c1C(=O)c1ccc(C)cc1	?	-13.7%
CCOC(=O)c1sc(NC(=O)COc2ccccc2Cl)c(C(=O)OCC)c1C	-18.7%	10.6%
CCCS(=O)(=O)N1CC(=O)N(c2cccc(Cl)c2C)C(C)(C(=O)NC2CCCC2)C1 (configuration not stated)	-10.5%	-0.9%
COc1cc(C(=O)NCc2nnnn2-c2ccc(C)c(C)c2)cc(OC)c1OC	19.8%	16.8%
CCCN(CCC)CCNC(=O)c1ccc2c(c1)NC(=O)C(CS(=O)(=O)Cc1cccc(Br)c1)N2 (configuration not stated)	?	-8.0%
O=C(CCCCn1c(=O)c2ccccc2n(Cc2ccccc2Cl)c1=O)NCc1ccc2c(c1)OCO2	?	-8.6%
Cc1ccc(-c2nc(CCNC(=O)C(=O)Nc3ccc(C)c(C)c3)cs2)cc1	13.4%	-4.1%
COc1ccccc1CNC(=O)c1ccc(Nc2nc3ccccc3n3nnnc23)cc1	?	-10.3%
COc1ccc(-c2onc(C)c2C)cc1S(=O)(=O)NCc1ccco1	-28.0%	-15.9%
COc1ccc(N(CC(=O)N2CCN(c3ccccc3)CC2)S(=O)(=O)c2c(C)nn(C)c2C)cc1	-19.8%	-9.1%
CCN(CC)c1ccc(C(=O)NCc2ccc3c(c2)CCN3C(C)=O)cc1	-6.2%	-0.3%
O=C1NCCc2[nH]c(-c3ccncc3)cc21	nt	?
Cc1cc(C)cc(NC(=O)C(=O)NCC(c2cccnc2)N2CCOCC2)c1 (configuration not stated)	1.3%	-30.2%

The list goes on; it opens with the two that closed the last part.
compound	PMP22 txn prim	HTT promoter inh
O=C1NCCc2[nH]c(-c3ccncc3)cc21	nt	?
Cc1cc(C)cc(NC(=O)C(=O)NCC(c2cccnc2)N2CCOCC2)c1 (configuration not stated)	1.3%	-30.2%
CCCCn1c(=O)c2oc3ccccc3c2n(CC(=O)Nc2ccccc2OC)c1=O	-23.0%	1.0%
Cc1cn2c(=O)cc(COC(=O)COc3ccc(F)cc3)nc2s1	?	-15.1%
CCOc1ccc(CNC(=O)c2ccc(-c3nc(CS(=O)(=O)c4ccccc4)c(C)o3)cc2)cc1	?	?
CCc1ccc(-n2c(=O)c3cccnc3n2CC(=O)NCc2ccccc2)cc1	?	-18.3%
CCOCCCNc1ncnc2onc(C)c12	-17.3%	-7.2%
COc1ccc(Cc2nc3ccc(C(=O)NCCCN4CCN(C)CC4)cc3o2)cc1	-16.9%	-24.2%
Cc1ccc(CCNC(=O)c2c3c(nc4ccccc24)C(=O)N(C2CCCCC2)C3)cc1	?	-10.3%
CCC(=O)N1c2ccccc2CC1C(=O)NCCc1ccc(Cl)cc1 (configuration not stated)	?	-10.9%
CCOc1ccc(S(=O)(=O)c2c(C(=O)c3ccc(C)c(C)c3)cnc3ccccc23)cc1	?	-17.1%
Cc1[nH]c2ccccc2c1C(c1ccccc1)c1cccs1 (configuration not stated)	?	-25.3%
O=C(CSc1nc2c([nH]c3ccccc32)c(=O)n1-c1cccc(Cl)c1)NCC1CCCO1 (configuration not stated)	-14.3%	-16.3%
COc1ccc(NC(=O)c2coc(=O)c3ccccc23)cc1OC	-17.4%	50.3%[activator][11.5 µM]
Cc1ccc(OC(=O)CSc2nnc(CNC(=O)c3ccccc3)o2)cc1	15.0%	4.6%
Cc1noc2ncnc(Nc3ccc(F)cc3)c12	-2.1%	-18.4%
CCOc1ccc(NC(=O)c2c(C)oc3nc(C)nc(N4CCCC4)c23)cc1	-11.8%	-6.2%
Cc1ccc(NC(=O)Cn2nnc(-c3nc(-c4ccncc4)no3)c2N)cc1	-2.5%	1.0%
Cc1cccc(CCNC(=O)CN(c2ccc(C(C)C)cc2)S(=O)(=O)c2c(C)nn(C)c2C)c1	-20.6%	?
COc1cccc2cc(-c3nc4sc(C(=O)Nc5ccc(F)cc5F)c(C)c4c(=O)[nH]3)c(=O)oc12	-1.8%	4.4%
Cc1oc2ncnc(N3CCCCC3)c2c1C(=O)N1CCN(c2cccc(C(F)(F)F)c2)CC1	?	-15.3%
COc1ccccc1NC(=O)Cn1c(=O)n(Cc2nc(C)no2)c(=O)c2cc3c(cc21)OCO3	27.7%	-9.9%
CCN(CC)C(=O)Nc1ccc2c(c1)N(Cc1ccccc1)C(=O)c1ccccc1S2	-1.8%	-5.6%
Cc1cccc(NS(=O)(=O)c2ccc3c(c2)CCN3C(=O)C2CC2)c1C	-47.8%	?
Cc1ccc(CNC(=O)c2ccc3c(c2)CCN3S(=O)(=O)c2ccc(Br)cc2)cc1	22.7%	?
COc1ccc(C(=O)Nc2nnc(SCc3cc(=O)n4cc(Cl)ccc4n3)s2)cc1	7.2%	28.7%
O=C(CNC(=O)c1ccccc1Cl)OCc1cc(=O)n2ccsc2n1	-3.1%	1.3%

(further entries)
compound	PMP22 txn prim	HTT promoter inh
Cc1ccc2oc(C(=O)Nc3sc4c(c3C(=O)NCC3CCCO3)CCC4)cc(=O)c2c1 (configuration not stated)	3.0%	6.4%[11.5 µM]
COc1cccc(CNC(=O)C2CCCN(c3nc4ccccc4n4cccc34)C2)c1 (configuration not stated)	-39.8%	2.8%
Cc1ccc2oc(=O)n(CCCOc3ccc(Cl)cc3)c2c1	-22.5%	-5.1%
Cc1cc(OC(C)C(=O)N2CCN(CCc3ccccn3)CC2)ccc1Cl (configuration not stated)	-5.8%	-17.9%
CCCc1ccc(OCC(=O)Nc2scc(-c3cccs3)c2C(=O)OC)cc1	-20.2%	-19.6%
CSc1ncc2c(n1)-c1ccccc1N(Cc1ccc(F)cc1)S2(=O)=O	0.3%	-17.0%
Cc1cc(NC(=O)CSc2nc3c([nH]c4ccccc43)c(=O)n2-c2ccc(Cl)cc2)no1	?	-11.6%
CCOc1ccc(NC(=O)CC2C(=O)N(c3ccccc3)C(=O)N2C2CCCCC2)cc1 (configuration not stated)	30.1%	?
COC(=O)c1ccccc1NC(=O)Cn1c(=O)cc(-c2ccccc2)c2c(C)nn(C)c21	-27.9%	-22.9%
Cc1ccc(-c2csc(=Nc3ccccc3)n2Cc2ccc3c(c2)OCO3)cc1C	-3.7%	23.9%
Cn1c(=O)c2sccc2n2c(CCC(=O)NCc3ccccc3Cl)nnc12	-20.0%	-18.6%
Cn1c(=O)c2c(-c3ccccc3Br)n(CCc3ccccc3)cc2n(C)c1=O	-26.5%	-14.8%
O=C(CN1C(=O)CCn2nc(-c3ccccc3)cc21)NCc1ccc(F)cc1	14.5%	-14.6%
COc1ccc(C(=O)N2CCN(CCc3ccccn3)CC2)cc1	-1.9%	-16.0%
Cc1ccc(Cn2c(C(=O)O)c(CNC3CCCCCC3)c3ccc(C)cc32)cc1	7.0%	-2.9%
Cc1nn(C)c2c1c(C(F)(F)F)cc(=O)n2CC(=O)N1CCC(C)CC1	-6.6%	-3.5%
COc1ccc(OC)c(NC(=O)CN2CCCN(Cc3ccccc3Cl)S2(=O)=O)c1	-9.1%	-29.6%
COc1ccc(OCC(=O)OCc2cc(=O)n3nc(C4CCCCC4)sc3n2)cc1	-20.8%	-13.1%
COc1ccc(-n2c(=O)c3c4c(sc3n(CC(=O)N3CCCCC3C)c2=O)CCC4)c(OC)c1 (configuration not stated)	14.6%	-5.5%
COc1ccc(CNC(=O)c2ccc(NC(=O)N3CCSc4ccccc43)cc2)cc1	23.7%	-8.0%
CCCNC(=O)c1ccc(-n2c(-c3ccccc3)cc3c2CCCCC3)cc1	?	12.0%
CCOC(=O)CNC(c1ccccc1)c1cc(Br)ccc1NC(=O)c1ccc(Cl)cc1 (configuration not stated)	-22.6%	?
CC(=O)c1c(C)oc2c1cc(NS(=O)(=O)c1ccc(Cl)c(C)c1)c1ccccc12	-5.5%	?
CCN(CC)C(=O)CSc1nc(-c2ccc(C)cc2)nc2c1Cc1c(CO)cnc(C)c1O2	?	-34.7%
CCN1C(C(=O)c2ccccc2)=C(OC(=O)c2ccccc2OC)c2ccccc2S1(=O)=O	?	?

The list goes on.
compound	PMP22 txn prim	HTT promoter inh
COc1cc(NC(=O)c2c(C)oc3c2C2=NCCN2C=N3)cc(OC)c1OC	-9.6%	-18.1%
O=C(C1CCCCC1)N(Cc1cccnc1)c1nc2ccc(Cl)cc2s1	-2.3%	?
CCc1nn(CC(=O)NCCCOC)c(=O)c2cc3ccccc3n12	-12.3%	3.8%
COc1ccc(CNC(=O)CCNS(=O)(=O)c2ccc3c(c2)oc(=O)n3C)cc1	-25.2%	-9.5%
Cc1ccc(NC(=O)Cn2nnc(-c3nc(-c4ccc(Cl)cc4)no3)c2N)cc1C	-1.9%	2.3%
Cc1ccc(N2CCN(C(=O)Nc3cn(CC(C)C)c(=O)c4ccccc34)CC2)c(C)c1	-4.9%	-1.9%
COC(=O)C1=C(C)N=C2SCCC(=O)N2C1c1ccc(OCc2ccccc2)c(OC)c1 (configuration not stated)	-6.5%	-18.1%
COc1ccc(N2CCN(S(=O)(=O)c3ccc(-c4coc(C)n4)cc3)CC2)cc1	-32.6%	?
CN1CCc2c(sc3c2C(=O)NC(c2ccc(C(C)(C)C)cc2)N3)C1 (configuration not stated)	?	-7.1%[11.5 µM]
Cc1ccc2nc(-c3ccc(Cl)c(NC(=O)COc4ccc(C(C)C)cc4)c3)oc2c1	15.4%	17.1%
Cc1ccc(C)c(CN2C(=O)c3ccccc3S(=O)c3ccc(C(=O)NCCC4=CCCCC4)cc32)c1 (configuration not stated)	-27.0%	-27.0%
COc1ccccc1NC(=O)Cn1c(=O)n(-c2ccc(C)cc2)c(=O)c2ccc(C(=O)NCc3ccco3)cc21	?	4.5%
O=C(Nc1ccc(F)cc1F)c1ccc(-n2cnnc2)cc1	-53.8%	3.8%
CCn1c(=O)cc(SCC(=O)Nc2cc(Cl)ccc2OC)c2ccccc21	?	?
COc1ccccc1N1CCN(c2ncnc3c2nc2n3CCCC2)CC1	?	?
Cc1ccc(NC(=O)CN2C(=O)COc3ccc(S(=O)(=O)N4CCCCC4)cc32)cc1Cl	0.5%	-14.8%
COc1ccc2oc(-c3cccc(NC(=O)c4ccc(C#N)cc4F)c3)nc2c1	?	-4.7%
Cc1ccc(S(=O)(=O)c2cnc(SCC(=O)Nc3ccc4c(c3)OCCO4)[nH]c2=O)cc1Cl	-21.4%	-18.0%
O=C(Nc1nnc(C2CC(=O)N(c3ccc(Cl)cc3)C2)s1)c1ccco1 (configuration not stated)	-35.9%	-5.9%
CN(C)c1ccc(CNC(=O)Cn2c(=O)oc3cc(S(=O)(=O)N4CCCCCC4)ccc32)cc1	-23.5%	?
Cc1cccc(C(c2sc3nc(-c4ccco4)nn3c2O)N2CCN(Cc3ccccc3)CC2)c1 (configuration not stated)	-1.5%	8.2%
Cc1ccc(C)c(NC(=O)CSc2ncc3c(n2)-c2ccccc2N(Cc2ccccc2C)S3(=O)=O)c1	-17.5%	-14.2%
Cc1cccc(-c2noc(CNC(=O)c3ccco3)n2)c1	6.3%	1.4%
CCc1nn(CCCC(=O)N2CCN(c3cc(Cl)ccc3C)CC2)c(=O)c2cc3occc3n12	?	-20.2%
O=C(c1ccccc1)N1CCCCC1CCN1CCCCC1 (configuration not stated)	2.8%	-7.3%
COc1ccccc1-c1cc(C(F)(F)F)nc(S(=O)(=O)CCCC(=O)Nc2cc(C)ccc2O)n1	-12.6%	33.7%[activator]
